Compound activity from PubChem BioAssay.
VDR inhibitor = inhibitors of human vitamin D receptor. P11473. VDR-SRC2-3 peptide fluorescence polarization, 2 h. 400,000 tested, 0.93% active. AID 504847. Potency, µM, inactives show max response, negative = inhibition, hits mostly inhibitors; active = well fitted inhibition curve with a large enough effect; inconclusive = small, poorly fitted or top-dose-only effect, or another doubt; inactive = no such curve, though single readings can be large or run the other way; also: series mostly up to about 120 µM
Target sequence (P11473 whole entry, looked up): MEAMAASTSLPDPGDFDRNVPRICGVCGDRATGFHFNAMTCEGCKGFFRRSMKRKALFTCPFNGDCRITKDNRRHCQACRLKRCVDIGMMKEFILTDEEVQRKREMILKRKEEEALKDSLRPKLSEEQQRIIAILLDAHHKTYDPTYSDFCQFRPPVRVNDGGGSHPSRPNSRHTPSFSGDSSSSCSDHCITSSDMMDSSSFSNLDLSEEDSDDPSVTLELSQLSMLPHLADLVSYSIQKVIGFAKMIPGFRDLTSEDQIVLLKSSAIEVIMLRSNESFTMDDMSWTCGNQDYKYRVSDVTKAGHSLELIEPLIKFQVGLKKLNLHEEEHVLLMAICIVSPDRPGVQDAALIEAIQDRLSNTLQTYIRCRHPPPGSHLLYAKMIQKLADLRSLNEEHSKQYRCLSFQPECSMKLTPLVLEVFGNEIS
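Fluorescence polarization assay measuring small-molecule disruption of VDR binding to the coregulator peptide SRC2-3. Compounds were pin-transferred (23 nl) into the reagent mix and incubated 2 h at room temperature before reading.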
The depositor's hits bear a star; & = joins results of further samples. % is scaled to controls: 0 for no effect and ±100 for the full control effect; potency is read from the fitted curve at half-maximal effect. A portion of the library; the hit share may differ from the screen's.

How did Cn1c(=O)c2c(nc(N3CCc4ccccc4C3)n2Cc2ccc(Br)cc2)n(C)c1=O do in these assays?
VDR inhibitor: -1.1%

What do the screens show for `CC(=O)c1cc(C#N)c(SCC(=O)Nc2nccs2)nc1C`?
VDR inhibitor: 7.9%

What do the screens show for `COc1ccc(CCC2CCNCC2)cc1`?
VDR inhibitor: -0.3%

How did O=S1(=O)C[C@@H](O)[C@@H](Nc2ccc(Cl)cc2)C1 do in these assays?
VDR inhibitor: 3.9%

What do the screens show for `COc1cc(OC)c2ccc(=O)oc2c1C(CC(=O)N1CCOCC1)c1ccc(N(C)C)cc1` (centres undefined)?
VDR inhibitor: 23.5%

What do the screens show for `O=C(O)Cc1sc(Nc2cccc3ccccc23)nc1-c1ccc(F)cc1`?
VDR inhibitor: -5.0%

What do the screens show for `CN(Cc1ccccc1)C(=O)CSc1nc2ccccc2c(=O)n1Cc1ccco1`?
VDR inhibitor: -11.8%

How did CCOC(=O)C1=C(C)NC(=O)NC1c1ccccc1Cl (centres undefined) do in these assays?
VDR inhibitor: -10.7%

What do the screens show for `COc1ccccc1/C=C/CN1CCOCC1`?
VDR inhibitor: 19.4%

How did CCOC(=O)N1CCN(c2cc(C)c([N+](=O)[O-])cc2F)CC1 do in these assays?
VDR inhibitor: -9.7%

What do the screens show for `CCC(CC)C(=O)Nc1nnc(S(=O)(=O)N2c3ccccc3CC2C)s1` (centres undefined)?
VDR inhibitor: -5.9%&4.1%

Results for O=C(Nc1cccc(Cl)c1)N1N=CCC1c1ccccc1 (centres undefined) ?
VDR inhibitor: 9.8%

What do the screens show for `CCCC(=O)Nc1nn(C)c2nc3ccc(C)cc3cc12`?
VDR inhibitor: 7.5%

How did Cn1ncc(C#N)c1NC(=O)C1CC(c2c(F)cccc2Cl)=NO1 (centres undefined) do in these assays?
VDR inhibitor: -2.7%

What do the screens show for `COC(=O)c1c(NC(=O)C2Cc3ccccc3C(=O)O2)sc2c1CCCC2` (centres undefined)?
VDR inhibitor: 3.0%

What do the screens show for `COc1ccc2c(c1OC)C(=O)OC2[C@H]1c2c(cc3c(c2OC)OCO3)CCN1C` (some centres undefined)?
VDR inhibitor: -4.0%

What do the screens show for `O=C1Nc2ccccc2/C1=C/c1ccccc1Cl`?
VDR inhibitor: inconclusive

How did CNc1nc2c(Cl)cc(Cl)cc2s1 do in these assays?
VDR inhibitor: 0.5%

How did O=C(Cc1cccs1)NCc1ccccc1F do in these assays?
VDR inhibitor: inconclusive

Results for COc1ccc2c(c1)CC(NC(=O)Nc1cc(Cl)ccc1OC)CO2 (centres undefined) ?
VDR inhibitor: 21.3%

Entries from the list above with a cyano group, in the order listed:
What do the screens show for `CC(=O)c1cc(C#N)c(SCC(=O)Nc2nccs2)nc1C`?
VDR inhibitor: 7.9%

How did Cn1ncc(C#N)c1NC(=O)C1CC(c2c(F)cccc2Cl)=NO1 (centres undefined) do in these assays?
VDR inhibitor: -2.7%

Next results follow.
Results for Cc1ncc(CN2CCCC(C(=O)Nc3ccc(-c4cscn4)cc3)C2)cn1 (centres undefined) ?
VDR inhibitor: -6.2%

How did CSc1nncc(-c2ccc(F)c(F)c2)n1 do in these assays?
VDR inhibitor: -10.7%

How did CC1CCCCC1NC(=O)c1ccc(NS(=O)(=O)c2ccc3[nH]c(=O)[nH]c3c2)cc1 (centres undefined) do in these assays?
VDR inhibitor: -0.2%

Results for COc1ccc(-n2nc(C(=O)Nc3ccc(Br)cc3C)c3c4ccccc4n(C)c3c2=O)cc1 ?
VDR inhibitor: -24.1%

How did CCn1c(O)c2ccc(C(=O)N=NC(=O)c3cccnc3)cc2c1O do in these assays?
VDR inhibitor: 13.9%

What do the screens show for `O=C(COCc1cc(-c2ccc3c(c2)OCO3)on1)N1CCCCC1`?
VDR inhibitor: 9.9%

How did CC(=O)c1ccc2c(c1)CC(C)C(=O)N2C (centres undefined) do in these assays?
VDR inhibitor: -2.5%

What do the screens show for `CCOC(=O)CC(=O)CSc1nc(-c2ccc3c(c2)OCO3)cc(C(F)(F)F)c1C#N`?
VDR inhibitor: 12.7%

What do the screens show for `COC(CNC(=O)C(=O)NCC1OCCN1C(=O)c1ccc(Cl)cc1)OC` (centres undefined)?
VDR inhibitor: 9.0%

What do the screens show for `CCOC(=O)c1nn(-c2ccc(C)cc2)c(C)c1C(C)=O`?
VDR inhibitor: 17.9%

What do the screens show for `Cc1ccc(-c2nnn(CC(=O)N(Cc3ccco3)C(C(=O)NC(C)(C)C)c3ccc(C)o3)n2)o1` (centres undefined)?
VDR inhibitor: -1.0%

How did CC(C)CNS(=O)(=O)c1ccc(CCC(=O)NCCC2=CCCCC2)cc1 do in these assays?
VDR inhibitor: -28.1%

How did CC1(C(=O)NC(=S)NNC(=O)c2ccncc2)CCCCC1 do in these assays?
VDR inhibitor: -7.3%

Results for Cc1ccc(Sc2nnc(-c3ccccc3)cc2C#N)cc1 ?
VDR inhibitor: 6.7%

What do the screens show for `COc1cccc(CC2(CO)CCCN(CC3=Cc4cc(Cl)ccc4OC3)C2)c1` (centres undefined)?
VDR inhibitor: -0.6%

What do the screens show for `O=C1NC(=O)C(Cc2ccccc2)(c2cccnc2)N1` (centres undefined)?
VDR inhibitor: 3.9%

Results for COc1ccc(C(=O)NC(=S)N2CCNC(=O)C2)cc1Br ?
VDR inhibitor: -14.6%

Results for O=c1cc(N2CCCCC2)c(-c2ccccc2)nn1Cc1cccc(Cl)c1 ?
VDR inhibitor: 5.6%

Results for CCCNS(=O)(=O)c1ccc(OCC(=O)Nc2ccc3c(c2)OCO3)cc1 ?
VDR inhibitor: -7.9%

Results for O=C(Cn1c(COc2ccccc2)nc2ccccc21)Nc1cc(Cl)cc(Cl)c1 ?
VDR inhibitor: 4.9%

Results for O=C(NC(=S)NCCC1=CCCCC1)c1ccco1 ?
VDR inhibitor: -2.8%

How did COC(=O)c1ccc(-n2cncn2)c([N+](=O)[O-])c1 do in these assays?
VDR inhibitor: 8.7%

What do the screens show for `Cc1nnsc1S(=O)c1ccccc1Cl` (centres undefined)?
VDR inhibitor: -19.4%

What do the screens show for `CC(C)Cn1c(N)c(C(=O)CSc2ccc3c(c2)OCCO3)c(=O)n(C)c1=O`?
VDR inhibitor: -10.6%

Results for Cc1ccc(-n2c(SCC(=O)Nc3ccc(N4CCOCC4)cc3)nc3ccccc3c2=O)cc1 ?
VDR inhibitor: -15.6%

How did CC(C)OC(=O)/C(=C/c1ccco1)c1ccccc1 do in these assays?
VDR inhibitor: -2.9%

Results for COc1cc(OC)c2c(-c3ccccc3)cc(=O)oc2c1C(CCN1CCCCC1)c1ccc2c(c1)OCO2 (centres undefined) ?
VDR inhibitor: 5.2%&2.2%

Results for O=C1C=CN2CCCCC2CC1 (centres undefined) ?
VDR inhibitor: 10.2%

Results for COc1cccc(NC(=O)CSc2nc3ccsc3c(=O)n2-c2ccc(C(=O)O)cc2)c1 ?
VDR inhibitor: -6.6%

Results for Cc1cc(O)c2c(CN3CCN(Cc4ccccc4)CC3)cc(=O)oc2c1 ?
VDR inhibitor: -10.2%

What do the screens show for `S=c1[nH]cnc2sc(Nc3ccccc3)nc12`?
VDR inhibitor: 70.8µM*

Results for COc1ccc(NS(=O)(=O)c2ccc3nc(COc4ccc5ccccc5c4)[nH]c3c2)cc1 ?
VDR inhibitor: -9.4%

What do the screens show for `CCOC(=O)c1sc(NC(=O)C(CC)Sc2nnc3c4ccccc4n(C(C)C)c3n2)nc1C` (centres undefined)?
VDR inhibitor: 0.7%

What do the screens show for `C[C@H](O)[C@@H]1C(=O)N2CCc3ccc(N4CCN(C)CC4)cc3[C@@H]2C[C@@H]1N(C)C(=O)NC1CCCCC1`?
VDR inhibitor: 0.8%

Results for C=CCNC(=S)NN=C1CCCCCCC1 ?
VDR inhibitor: -1.4%

Results for COc1cccc(CNc2nc3nc(C)cc(=O)n3[nH]2)c1 ?
VDR inhibitor: -3.3%

How did COc1ccc(S(=O)(=O)N2CCN(CC(=O)Nc3ccccc3Cl)CC2)cc1 do in these assays?
VDR inhibitor: 6.6%

What do the screens show for `CCOC(=O)c1c(C)n(C)c2c(C)cc(O)c(OC(C)=O)c12`?
VDR inhibitor: -7.0%

How did CCOC(=O)N1CCN(S(=O)(=O)CCNC(=O)c2ccc(OC)cc2)CC1 do in these assays?
VDR inhibitor: 0.3%

How did CCOC(=O)c1cnc(SCC)[nH]c1=O do in these assays?
VDR inhibitor: -1.1%

What do the screens show for `Cn1c(=O)c(=O)n(C)c2cc(S(=O)(=O)N3CCOCC3)ccc21`?
VDR inhibitor: 4.5%

Results for COc1ccc(Cl)cc1C(=O)NNC(=O)CSc1nnc2ccccn12 ?
VDR inhibitor: 17.3%

What do the screens show for `CCC1(C)NC(=O)N(CC(=O)Nc2sc3c(c2C(=O)OC)CCCCC3)C1=O` (centres undefined)?
VDR inhibitor: -11.9%

What do the screens show for `COc1ccc(CN2CCN(Cc3cccc4nonc34)CC2CCO)c(C)c1C` (centres undefined)?
VDR inhibitor: 2.7%

Results for O=C(NCCCSc1ccccc1)c1cc(Br)ccc1O ?
VDR inhibitor: -11.3%

How did COC(=O)[C@]1(Cc2ccccc2)N[C@H](c2ccc(-c3cccc(Cl)c3)c(OC)c2)[C@@H]2C(=O)N(C)C(=O)[C@@H]21 do in these assays?
VDR inhibitor: 0.5%

How did Cn1c(=O)c2c(-c3ccccc3)n3c(c2n(C)c1=O)C(c1ccc([N+](=O)[O-])cc1)Nc1ccccc1-3 (centres undefined) do in these assays?
VDR inhibitor: 5.2%

What do the screens show for `COCCNC(=O)CSc1nc2ccccc2c(=O)n1CCC(=O)NCCc1ccc(OC)c(OC)c1`?
VDR inhibitor: 12.6%

How did CCOC(=O)c1sc(NC(=O)c2ccccc2)cc1C do in these assays?
VDR inhibitor: 7.5%

How did Cc1ccc(OCCC(=O)Nc2ccc(F)c(F)c2)cc1 do in these assays?
VDR inhibitor: -11.5%

How did CCCCCCOc1ccc(/C(N)=N/O)cc1 do in these assays?
VDR inhibitor: -1.3%

Results for CCCCN(CCCC)C(=O)c1cc2c(=O)n3cccc(C)c3nc2s1 ?
VDR inhibitor: 5.9%

What do the screens show for `Cc1nn(C)c(C(=O)NNC(=S)NC2CCCCC2)c1Br`?
VDR inhibitor: -15.9%

Results for NC(=O)c1ccccc1NC(=O)CS(=O)(=O)Cc1ccccc1 ?
VDR inhibitor: 10.3%

What do the screens show for `Fc1ccc(OCc2nnc(SCCN3CCOCC3)o2)cc1`?
VDR inhibitor: -8.3%

What do the screens show for `CN(Cc1ccco1)C(=O)c1ccc(CNS(=O)(=O)c2ccc3c(c2)C(C)(C)C(=O)N3C)cc1`?
VDR inhibitor: -7.5%

Results for S=C(NCCC1=CCCCC1)NCc1ccco1 ?
VDR inhibitor: -14.6%

What do the screens show for `CCOc1ccc(CCN2CN(C3CCCCC3)CNC2=S)cc1OCC`?
VDR inhibitor: 5.1%

What do the screens show for `Cc1cc(C(=O)OCC(=O)Nc2ccccc2C(F)(F)F)on1`?
VDR inhibitor: 3.7%

How did Cc1ccc(CNC(=O)c2c[nH]n3c(=O)c(Cc4ccc(F)cc4Cl)c(C)nc23)cc1 do in these assays?
VDR inhibitor: -7.7%

Among those listed so far, 5 have bromine.
How did Cn1c(=O)c2c(nc(N3CCc4ccccc4C3)n2Cc2ccc(Br)cc2)n(C)c1=O do in these assays?
VDR inhibitor: -1.1%

Results for COc1ccc(-n2nc(C(=O)Nc3ccc(Br)cc3C)c3c4ccccc4n(C)c3c2=O)cc1 ?
VDR inhibitor: -24.1%

Results for COc1ccc(C(=O)NC(=S)N2CCNC(=O)C2)cc1Br ?
VDR inhibitor: -14.6%

Results for O=C(NCCCSc1ccccc1)c1cc(Br)ccc1O ?
VDR inhibitor: -11.3%

What do the screens show for `Cc1nn(C)c(C(=O)NNC(=S)NC2CCCCC2)c1Br`?
VDR inhibitor: -15.9%

(list continues)
How did Cn1cc(Br)c(C(=O)NNC(=O)Cc2ccc(Cl)cc2)n1 do in these assays?
VDR inhibitor: 13.3%

Results for O=C(NNC(=O)c1ccc([N+](=O)[O-])cc1)c1ccncc1 ?
VDR inhibitor: -3.4%

What do the screens show for `Cc1cc([N+](=O)[O-])c(C)cc1-c1ccc(/C=N/NC(=O)c2cccnc2)o1`?
VDR inhibitor: inconclusive

How did N/C(=N\OC(=O)c1cccc(F)c1)c1ccccc1 do in these assays?
VDR inhibitor: -18.2%

Results for Cc1cc(Cl)c(OCCCSc2nc(C)cc(=O)[nH]2)c(Br)c1 ?
VDR inhibitor: 16.6%

How did COc1ccc(S(=O)(=O)N2CCN(Cc3ccc(OC)c(OC)c3)CC2)cc1 do in these assays?
VDR inhibitor: -20.3%

How did Cc1ccc(C(=O)N2CCC(C)CC2)cc1NC(=O)c1nsc2ccccc12 do in these assays?
VDR inhibitor: 3.5%

Results for COc1ccc(CCNc2cc(C)nc3c(-c4ccccc4OC)cnn23)cc1OC ?
VDR inhibitor: -5.9%

Results for CCCCCCn1nc(C(=O)N(CCOC)c2c(N)n(CCCC)c(=O)[nH]c2=O)c2ccccc2c1=O ?
VDR inhibitor: -4.9%

How did O=C(O)c1cccc(Nc2ccc3nonc3c2[N+](=O)[O-])c1 do in these assays?
VDR inhibitor: -2.8%

What do the screens show for `CCOc1ccccc1NC(=O)Cc1coc2ccc(C)cc12`?
VDR inhibitor: 23.9%

What do the screens show for `CCCCC(=O)N=c1sc2cc(S(C)(=O)=O)ccc2n1C`?
VDR inhibitor: 12.2%

Results for COc1ccc(N(C)C(=O)c2onc3c2CCCC3)cc1 ?
VDR inhibitor: -19.2%

Results for COc1ccccc1CN1CCN(C(=O)c2ccncc2)CC1 ?
VDR inhibitor: 7.0%

Results for c1cc2c(nn1)CCc1nonc1-2 ?
VDR inhibitor: -8.6%

Results for COc1ccc(NC(=O)N(C)C[C@H]2Oc3c(NC(=O)Nc4ccccc4)cccc3C(=O)N([C@H](C)CO)C[C@@H]2C)cc1 ?
VDR inhibitor: -9.3%

Results for CC1CCN(c2ccc([N+](=O)[O-])cc2C(=O)N2CCOCC2)CC1 ?
VDR inhibitor: -10.8%

Results for CCn1c(SC(C)C(=O)NCC2CCCO2)nc2ccccc21 (centres undefined) ?
VDR inhibitor: -13.2%
